# VDR inh = vitamin D3 receptor (human) inhibition; 400,000 tested, 0.93% active; Potency, µM, for the others: max response, negative = inhibition, hits mostly inhibitors; AID 504847; VDR-SRC2-3 peptide fluorescence polarization, 2 h; active = well fitted inhibition curve with a large enough effect; inconclusive = small, poorly fitted or top-dose-only effect, or another doubt; inactive = no such curve, though single readings can be large or run the other way; also: series mostly up to about 120 µM
# Target sequence (P11473 whole entry, looked up): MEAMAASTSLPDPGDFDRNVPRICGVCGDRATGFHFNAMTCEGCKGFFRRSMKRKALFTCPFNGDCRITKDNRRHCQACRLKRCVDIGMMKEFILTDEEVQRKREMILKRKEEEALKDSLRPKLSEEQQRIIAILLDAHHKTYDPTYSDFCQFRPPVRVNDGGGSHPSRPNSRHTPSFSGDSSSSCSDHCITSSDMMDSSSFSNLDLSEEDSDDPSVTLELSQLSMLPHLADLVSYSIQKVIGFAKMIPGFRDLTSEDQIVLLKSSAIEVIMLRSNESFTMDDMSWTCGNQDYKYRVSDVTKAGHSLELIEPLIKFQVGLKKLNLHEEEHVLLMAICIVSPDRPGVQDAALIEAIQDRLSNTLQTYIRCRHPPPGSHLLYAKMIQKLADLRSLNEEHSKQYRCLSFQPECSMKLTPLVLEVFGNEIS
#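 After 23 nl compound addition and a short centrifugation, plates sat for 2 hours at ambient temperature; polarization of fluorescence then indicated loss of VDR binding to peptide SRC2-3.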
# Active calls of the source: *; ? = inconclusive; & = joins results of further samples; [ ] = another dose, or the depositor's remark. % is scaled to controls: 0 for no effect and ±100 for the full control effect; potency is read from the fitted curve at half-maximal effect.
Structure	VDR inh
Cc1cc2c(cc1Cl)N(C(=O)Nc1ccc(Oc3cccnc3C)nc1)CC2	-5%
Cn1nnnc1SCCCNCc1ccccc1OCc1ccc(F)cc1	-2%
CC(C)(C)n1nnnc1C(c1cccc(C#N)c1)N1CCC(Cc2ccccc2)CC1 (stereo not given)	4%
Cc1ccc(N2CC(C(=O)Nc3nnc(SCC(=O)Nc4nc(C)cs4)s3)CC2=O)cc1 (stereo not given)	1%
COc1ccc(CSc2ncnc3sccc23)cc1F	2%
Cc1nc(-c2ccccn2)nc(SCC(=O)c2ccc(F)cc2)c1Cl	?
Cc1ccc(SCCN2CCN(C)CC2)cc1	2%
O=C(CNc1ccc(F)cc1)c1ccccc1	-5%
COc1ccc2cc3cc(C(=O)N(C)C4CCCCC4)oc3nc2c1	-14%
O=C(NCc1ccco1)c1ccc2c(c1)N(Cc1ccccc1)C(=O)CS2	-16%
CCCCn1c(N)c(N(CCC(C)C)C(=O)c2ccc3c(c2)OCO3)c(=O)[nH]c1=O	-20%
CC12C=CC(=O)C=C1CCC1C2C(=O)C[C@@]2(C)C1CCC2(O)C(=O)CO (stereo not given in full)	5%

# New compounds follow:
Structure	VDR inh
CC(C)C(=O)Nc1cccc(C(=O)NCc2ccc(S(N)(=O)=O)cc2)c1	1%
CCCCNC(=O)CCn1nc(-c2ccccc2)c2ccccc2c1=O	-28%
CN(C)c1ccc(S(=O)(=O)N2CCCCC2)cc1NC(=O)C1=COCCO1	33%[activator]
Cc1cc(C)cc(OCC(=O)Nc2ccc3c(c2)OCO3)c1	-14%
COc1ccc(-c2cc(=O)oc3cc(OCC(=O)NCc4ccccn4)ccc23)cc1	-1%
CCN1C(=O)[C@@H]2[C@@H](c3ccc(-c4ccc(C(C)=O)cc4)c(OC)c3)N3CCC[C@@]3(C(=O)OC)[C@@H]2C1=O	-4%
O=[N+]([O-])c1ccccc1/C=N/Nc1nc(N2CCCC2)nc(N2CCCC2)n1	-13%
COc1ccccc1CNC(=O)Cn1nc(C)c([N+](=O)[O-])c1C	-20%
O=C(O)c1cc(S(=O)(=O)Nc2ccc3cn[nH]c3c2)ccc1O	4%
Cc1ccc(NS(=O)(=O)c2ccc3c(c2)NC(=O)C(C)C(=O)N3)cc1F (stereo not given)	-6%
NS(=O)(=O)c1ccc(CNC(=O)C(c2ccccc2)c2ccccc2)cc1	-12%
O=C(NC(=S)Nc1ccccc1[N+](=O)[O-])c1cncc(Br)c1	-12%

# (list continues)
Structure	VDR inh
O=C(OCCc1cc2ccccc2c(=O)o1)c1ccc(F)cc1	-21%
COC(=O)c1c(NC(=O)CCC(=O)O)sc(Cc2ccccc2)c1C	-15%
CCOc1ccc(NC(=O)COC(=O)CC2CCCCC2)cc1	9%
COC(=O)c1ccc(Cl)c(NC(=O)CN(c2ccc(OC)cc2)S(=O)(=O)c2ccccc2)c1	0%
O=C(CSc1nnc(-c2ccc(S(=O)(=O)N3CCOCC3)cc2)o1)c1ccccc1F	3%
CCOc1ccccc1NC(=O)c1c(NC(=O)Cc2ccccc2)sc2c1CCCC2	-12%
COc1cc2[nH]c(=S)n(CC3CCCO3)c(=O)c2cc1OC (stereo not given)	13%
CC(=O)c1cccc(NC(=S)N2CCC(Cc3ccccc3)CC2)c1	7%
COc1cccc(CC(=O)Nc2nc(-c3cc(OC)ccc3OC)cs2)c1	-2%
CN1CCN(C(=O)C2CCCN(S(=O)(=O)c3ccc(F)cc3)C2)CC1 (stereo not given)	-10%
Cc1cccc(Nc2nc(-c3ccc(O)cc3O)cs2)n1	-4%
CCCCCCCCNc1nc(Cl)nc(NCc2ccco2)n1	13%

# (more compounds)
Structure	VDR inh
Cc1nn(Cc2ccccc2Cl)c(C)c1N	-7%
O=C(CSc1cccc2cccnc12)N/N=C/c1ccncc1	-7%
COc1ccc(CN2CC(=O)N(c3cc(Cl)ccc3OC)C2=S)cc1OC	-11%
O=C(NCc1ccccc1)c1ccc(NS(=O)(=O)c2cccs2)cc1	5%
O=C1CN(C(=O)COC(=O)c2cccc(Br)c2)c2ccccc2N1	-6%
CC(Sc1nc2c(c(=O)[nH]1)CCCC2)C(=O)Nc1cc(C(F)(F)F)ccc1Cl (stereo not given)	7%
CC(C)C(NC(=O)C(CC(=O)O)NC(=O)C(CCCCN)NC(=O)C(N)CCCN=C(N)N)C(=O)NC(Cc1ccc(O)cc1)C(=O)O (stereo not given)	-5%
COc1ccc(OC)c(CNCc2c(C(=O)O)n(Cc3ccccc3)c3cc(OC)ccc23)c1	19%
Cc1nn(-c2ccccc2)c(C)c1/C=N/NC(=O)c1cc(C(C)(C)C)[nH]n1	3%
O=C(CN1CCN(S(=O)(=O)c2ccc3ccccc3c2)CC1)NC(=O)NC1CCCCC1	-4%
Cc1ccc(-n2ncc3c(=O)[nH]c(SCC(=O)N4CCCC4)nc32)cc1C	-10%
COc1ccccc1N1CCN(C(=O)c2ccc3[nH]c4c(c3c2)CC(C)CC4)CC1 (stereo not given)	5%

# Later entries
Structure	VDR inh
COc1ccc(Cl)cc1C(=O)NNC(=O)CSc1nncn1C	-6%
O=C(NCC1CCCO1)c1cc2ccccc2o1 (stereo not given)	-2%
CC1CCCN(S(=O)(=O)c2ccc3c(c2)n(C)c(=O)c(=O)n3C)C1 (stereo not given)	-12%
COc1cccc(-c2cc(C(=O)O)[nH]n2)c1	3%
CC(C)(C)OC(=O)N1CCC[C@H]1C(=O)N/N=C/c1ccc2nccnc2c1	-7%
COc1ccc(NS(=O)(=O)c2ccc(C)c(C(=O)NCC(c3cccs3)N3CCOCC3)c2)cc1 (stereo not given)	-1%
CCOC(=O)c1cccc(NC2c3ccccc3C(=O)N2Cc2ccco2)c1 (stereo not given)	-13%
CCOC(=O)C1=C(C)c2ccccc2OC1C(=O)OCC (stereo not given)	11%&-2%
NCCCCCCNc1nc2c(N)ncnc2n1[C@@H]1O[C@@H]2COP(=O)(O)O[C@H]2[C@H]1O	10%
CCN(CC)S(=O)(=O)c1ccc2c(c1)N(CC(=O)NCc1ccc(F)cc1)C(=O)CO2	-5%
O=C(Nc1ccc(N2CCOCC2)c(C(=O)O)c1)c1ccc(Br)cc1	6%
CCC(=O)Nc1cc(-c2nc3ccccc3s2)c(Cl)cc1Cl	8%

# Later entries
Structure	VDR inh
COc1ccccc1NC(=O)Cn1ccn(-c2cc(C)cc(C)c2)c(=O)c1=O	15%
CCOc1cc(CNC(=O)c2ccc3c(c2)NC(=O)C2CCCCN32)cc(OCC)c1OCC (stereo not given)	8%
S=C(c1ccc(N2CCOCC2)cc1)N1CCCCC1	-21%
CCCC1CCC(C(=O)Nn2c(C)nc3ccccc3c2=O)CC1 (stereo not given)	-24%
CCCCN1CCC[C@@H]1CNC(=O)c1cc(C#N)c2ccccc2c1OC	-29%
Cc1ccc(C2=NN(CCC(=O)NCc3ccc4c(c3)OCO4)C(=O)CC2)cc1	13%
COc1cc(/C=N/NC(=O)c2cc(-c3ccccc3C)nc3ccccc23)cc(OC)c1O	-14%
CCOC(=O)Cn1c(-c2cccnc2)nc(-c2ccccc2)c1-c1ccccc1	3%
CCc1cccc(OCC(O)Cn2c(N3CCCCC3)nc3c2c(=O)[nH]c(=O)n3C)c1 (stereo not given)	-21%
COC(=O)c1ccc(C)c(NC(=O)CSc2sc3c(O)cc(=O)[nH]c3c2C#N)c1	21%
COc1ccc(CCNC(=O)C(C)n2c(=O)cc(-c3ccccc3)c3c(C)nn(C)c32)cc1OC (stereo not given)	6%
COc1ccc2oc(=O)c(C(=O)NCCc3ccc(OC)c(OC)c3)cc2c1	-7%

# Later entries.
Structure	VDR inh
O=c1c(Cc2ccc(Cl)cc2)c(O)ccn1Cc1cccs1	1%
COc1ccc(C2C3(C#N)C(N)=NC(OC)(OC)C23C#N)cc1 (stereo not given)	0%
Cc1c(Cl)ccc2sc(NC(=O)c3ccc(S(=O)(=O)N4CCCc5ccccc54)cc3)nc12	7%
CCN(CC)CCCOc1ccc(Cl)c(Cl)c1	-25%
O=C(NCc1ccccc1)NC1CCCCC1	-6%
COc1ccc(-c2oc3ccc(N4CCOCC4)cc3c2C#Cc2ccc(N)cc2)cc1	-14%
CCN(CC(=O)Nc1ccccc1C(F)(F)F)C(=O)c1ccc2c(=O)n3c(nc2c1)CCC3	-18%
COc1cc(/C=N/NC(=O)Cc2ccccc2)cc([N+](=O)[O-])c1O	-9%
CC1Cc2ccccc2N1C(=O)COC(=O)CCc1nc2ccccc2c(=O)[nH]1 (stereo not given)	?
Cc1cc(=O)[nH]c(N2CCN(Cc3ccccc3)CC2)n1	3%
CCc1ccc(-n2nc(C)c3c(C(=O)Nc4cc(C)ccc4C)cc(C)nc32)cc1	2%
CCC(OC(=O)CC1Sc2ccccc2NC1=O)C(=O)NCC1CCCO1 (stereo not given)	9%

# Three compounds from above, ordered by their value in VDR inh, smallest number first:
compound	VDR inh
O=C(NCc1ccccc1)NC1CCCCC1	-6%
O=c1c(Cc2ccc(Cl)cc2)c(O)ccn1Cc1cccs1	1%
Cc1c(Cl)ccc2sc(NC(=O)c3ccc(S(=O)(=O)N4CCCc5ccccc54)cc3)nc12	7%

# Other entries follow.
Structure	VDR inh
CCOC(=O)C1=C(CSc2nc(C)ccc2C#N)OC(N)=C(C#N)C1c1cccc(OC)c1OC (stereo not given)	15%
Cc1nc2ccccc2n1CC(=O)OCC(=O)NCCc1ccccc1	1%
CN(C)c1ncnc(N(C)C)c1[N+](=O)[O-]	3%
COc1ccc(C2=NN3C(C2)c2ccccc2OC3c2cccs2)cc1 (stereo not given)	-18%
COc1ccc(-c2ccc(CCC(=O)O)n2NC(=O)c2ccc(C(C)(C)C)cc2)cc1	-8%
COc1ccc(Oc2ncc3nc(-c4ccc(Cl)cc4)c(=O)n(CCC#N)c3n2)cc1	2%
COc1ccc(CCC(=O)O)c(O)c1	-23%
Nc1cccc(-c2ccc(CO)o2)c1	-9%
Cc1ccc(/C=N/NC(=O)CN2CCN(Cc3ccccc3Cl)CC2)o1	-3%
c1ccc2c(-c3csc(-c4ccncc4)n3)c[nH]c2c1	19%
Cc1onc(-c2ccccc2)c1C(=O)NC(=S)NNC(=O)c1ccccc1O	-2%
CCOC(=O)CSc1nc(N2CCOCC2)c2c(c1C#N)CC(C)(C)OC2	-6%

# Five records drawn at random from the list so far:
Structure	VDR inh
c1ccc2c(-c3csc(-c4ccncc4)n3)c[nH]c2c1	19%
CN(C)c1ncnc(N(C)C)c1[N+](=O)[O-]	3%
COc1ccc(-c2ccc(CCC(=O)O)n2NC(=O)c2ccc(C(C)(C)C)cc2)cc1	-8%
COc1ccc(Oc2ncc3nc(-c4ccc(Cl)cc4)c(=O)n(CCC#N)c3n2)cc1	2%
COc1ccc(CCC(=O)O)c(O)c1	-23%

# Next part
Structure	VDR inh
O=C1CSC(c2cccc([N+](=O)[O-])c2)N1CCc1ccccc1 (stereo not given)	-10%
COc1ccc(Cc2nc3ccc(C(=O)NCCc4cccc(C)n4)cc3o2)cc1	3%
O=C(O)c1csc(-c2cccc(Cl)c2)n1	-23%
COc1ccccc1NC(=O)CSc1nnc(Cc2cc(=O)[nH]c(=O)[nH]2)n1-c1ccccc1	5%
Nn1c(SCC(=O)Nc2ccc3c(c2)OCO3)nnc1-c1ccc(Cl)cc1	-6%
CCOc1ccc(Cc2nnc(SCC(N)=O)n2C)cc1	-6%
COc1cc(C2c3c(-c4cc(C)cc(C)c4O)n[nH]c3C(=O)N2CCCO)cc(OC)c1OC (stereo not given)	16%
O=C(Nc1ccc(Cl)cc1)N1CCN(c2ccc3nnc(-c4ccc(F)cc4)n3n2)CC1	-7%&2%
Cc1ccc(Cl)cc1N(CC(=O)N1CCCCCC1)S(C)(=O)=O	-7%
O=[N+]([O-])c1ccc(SCc2c(F)cccc2Cl)nc1	0%
NCCCCCc1nnc(SC/C=C/c2ccccc2)o1	1%
COc1ccc(NC(=O)c2sc(N)nc2-c2ccccc2)cc1	8%

# Next part:
Structure	VDR inh
O=C(COc1cccc(F)c1)Oc1ccc(C(=O)c2ccccc2)cc1	-10%
Cc1ccc(Cn2ncc(Cl)c(Cl)c2=O)cc1	-16%
CCOc1ccc(C2C(C#N)=C(N)Oc3cc(O)ccc32)cc1OCC (stereo not given)	18%
CC(=O)Nc1cccc(NC(=O)CSc2nccn2Cc2ccco2)c1	15%&17%
COc1cc(OC)cc(C(=O)N[C@H](C(=O)NC2=NCCS2)C(C)C)c1	19%
COc1ccc(NC(=O)COC(=O)Cc2c(F)cccc2Cl)cc1OC	-26%
Cc1ccc(C(=O)NCC(=O)NCc2cc(=O)n(C)c(=O)n2C)cc1	?
COC(=O)c1cccc(Nc2nc(-c3ccncc3)nc3ccccc23)c1	-15%
CC(=O)Nc1ccc(S(=O)(=O)Nc2ccc(S(=O)(=O)N3CCCC3)cc2)cc1	8%
CN(C)c1cccc(C(=O)NNC(=O)/C=C/c2cccs2)c1	-11%
NC(C(=O)O)[C@H](O)C(=O)O (stereo not given in full)	5%
COc1ccc(NC(=O)N(Cc2cc3cc(OC)ccc3[nH]c2=O)CC2CCCO2)cc1 (stereo not given)	1%

# Additional entries.
Structure	VDR inh
COc1ccc2occ(C(=O)c3ccc(N)cc3)c2c1	13%
Clc1ccc2oc(-c3cccnc3)nc2c1	-4%
O=C(CN1CCN(C(=O)c2ccco2)CC1)Nc1ccc(Cl)c(C(F)(F)F)c1	15%
CCCc1cc(=O)[nH]c(SCC(=O)NN(c2ccccc2)c2ccccc2)n1	20%
COc1ccc(OC)c(C(=O)N2CCCC(Nc3ccc(F)cc3)C2)c1 (stereo not given)	-16%
COC(=O)c1ccc(C(=O)OC)c(NC(=O)COC(=O)C2CCCCC2)c1	-3%
O=C(O)c1ccc(-c2nc(-c3cccc(C(F)(F)F)c3)cs2)cc1	-3%

# Some of the compounds tested; rates above refer to the full screens.
